Source: PubChem BioAssay
CBX7 inh: CBX7 inhibition, primary AlphaScreen; AlphaScreen His6-CBX7 / biotin-H3K27me3 peptide binding; stronger effect = lower value; AID 1224903; normalised signal (fraction of DMSO) (test concentration not listed); 66,000 tested, 1.1% active; O95931; in the data active means normalised signal below about 0.5;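 further: 100 nL library stock added to about 20 µL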
Target sequence (O95931 whole entry, looked up): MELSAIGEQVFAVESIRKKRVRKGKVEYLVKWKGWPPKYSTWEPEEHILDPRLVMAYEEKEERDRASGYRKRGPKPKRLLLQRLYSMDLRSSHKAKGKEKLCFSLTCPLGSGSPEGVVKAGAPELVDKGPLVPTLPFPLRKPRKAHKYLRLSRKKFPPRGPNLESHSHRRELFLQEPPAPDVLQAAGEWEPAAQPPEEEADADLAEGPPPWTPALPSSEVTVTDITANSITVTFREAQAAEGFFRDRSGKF
CBX7 inh z-score: also measured in CBX7 inh; calls as there; z-score; measured here: z-score of CBX7 signal; some inactives read as strong as hits; reference of the scale not given here;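 same signal on another scale; lower means less binding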
Starred values were filed as active, the others as inactive. These rows are one share of the data; rates above refer to the full screens.

SMILES,CBX7 inh,CBX7 inh z-score
CC1(C)CC2CC(C)(CN2c2nc(-c3ccc(Cl)cc3)cc(C(F)(F)F)n2)C1 (configuration not stated),1.2,9.5
Cc1ccc(N2C(=O)CC(N3CCN(c4ccccc4)CC3)C2=O)cc1 (configuration not stated),1,1.2
CCc1ccccc1Nc1cc(C(=O)NCCN2CCCC2)c2ccccc2n1,1.1,2.3
CCOc1cc2c(cc1OCC)C(c1ccccc1C(F)(F)F)NCC2 (configuration not stated),1,0.63
COc1cccc(CNc2sc3c(c2C(=O)Nc2ccc(OC)cc2OC)CCC3)c1,0.73,-5.2
COc1cccc(C2=NOC(C(=O)Nc3cccc(C(F)(F)F)c3)C2)c1 (configuration not stated),1,0.24
Cc1ccc(Cc2cnc(NC(=O)COc3ccc(Cl)cc3)s2)cc1,1.1,2.1
Cc1ccc(CN2CCN(CC(=O)NCc3ccccc3Cl)C2=O)cc1,0.98,-1
COc1ccc(-c2cc(CCCC(=O)N3CCN(c4ccc(OC)cc4)CC3)no2)cc1,0.94,-2.6
CC(NS(=O)(=O)c1ccc2[nH]c(=O)c(=O)[nH]c2c1)c1ccccc1 (configuration not stated),1,0.0057
Cc1cc(Nc2ccc(C)c(Br)c2)n2nc(C)nc2n1,0.96,-0.78
CC1=C(C(=O)Nc2cccc(C)n2)C(c2ccsc2)C2=C(CC(C)(C)CC2=O)N1 (configuration not stated),0.99,-0.08

SMILES,CBX7 inh,CBX7 inh z-score
NC(=O)COc1ccc(-c2noc(/C=C/c3ccccc3)n2)cc1,1,0.17
Cc1ccc(-n2ncc(C(=O)Nc3ccc(F)cc3F)c2C2CCN(C(=O)OC(C)(C)C)CC2)cc1,0.99,-0.26
CCOC(=O)c1cnc2cc(C(F)(F)F)ccc2c1N1CCN(CC)CC1,0.81,-3.2
CCN(CC)CCNC(=O)c1cc2c(-c3ccc(Cl)cc3)nn(C)c2s1,1.1,0.42
COc1cccc(C(=O)NCCc2cc3c(C)ccc(C)c3[nH]c2=O)c1,0.98,-0.52
Cc1nc2c(C(=O)NCCC3=CCCCC3)cnn2c(C)c1Cc1cccc(Cl)c1,1,-0.15
O=C(NCc1ccc2c(c1)OCO2)c1ccc2nc(-c3cccs3)c(-c3cccs3)nc2c1,0.98,-0.016
CC(C)CCNC(=O)C1CCN(S(=O)(=O)c2ccc3c(c2)CCC(=O)N3)CC1,0.97,-0.77
Cc1ccsc1-c1nc(CSCC(=O)N2CCCC2)c(C)o1,0.97,-0.65
CCc1nnc(NC(=O)c2c(-c3ccccc3Cl)noc2C)s1,1,1.4
CCCNC(=O)Cn1cnc2sc(C(=O)Nc3ccc(F)cc3Cl)c(C)c2c1=O,0.99,-0.33
COc1ccccc1CC1CC(=O)N(CCc2ccc3c(c2)OCO3)C1=O (configuration not stated),1.1,2.9

SMILES,CBX7 inh,CBX7 inh z-score
Cc1cc(C)cc(-n2ccnc2SCC(=O)Nc2cccc(C)c2C)c1,0.96,-0.56
COCCNc1nc(SCC(=O)Nc2cc(C)on2)nc2ccccc12,1,0.057
Cc1ccc2nc(-c3cccnc3)c(Nc3ccc(Cl)cc3)n2c1,1,1
Cc1ccc(Nc2c(-c3ccccn3)nc3ccc(C)cn23)cc1,0.084*,-20*
CCOc1ccc(-c2cc(CCCC(=O)NCc3ccc4c(c3)OCO4)no2)cc1,0.96,-0.97
CC(=O)Nc1ccc2nc(NC(=O)c3ccc(OC(C)=O)cc3)sc2c1,1,0.57
CCOc1ccc(C2CC(=O)Nc3cc4c(cc32)OCO4)cc1 (configuration not stated),1,0.73
O=C(Nc1ccc2oc(-c3ccc(F)cc3Cl)nc2c1)c1ccc(F)cc1,1,0.34
Cc1ccc(Nc2nc(-c3ccccc3F)nc3ccccc23)c(Br)c1,1.1,0.68
CCc1ccc(-c2nc(CN3CCC(C(=O)NC(C)c4ccccc4)CC3)c(C)o2)cc1 (configuration not stated),1,1.1
CCOCCCNC(=O)c1ccc2c(c1)N(Cc1ccc(Cl)cc1)C(=O)CS2,1,0.39
CC(C)(C)C(=O)/C=C(\N)c1ccncc1,1.1,0.55

SMILES,CBX7 inh,CBX7 inh z-score
CC(=O)c1cccc(Nc2nc(-c3ccccn3)cs2)c1,0.38*,-12*
CC1CCN(S(=O)(=O)c2ccc3c(c2)c(=O)c(C(=O)O)cn3C)CC1,0.95,-0.52
Cc1c(C)n(CC(O)CN2CCCCC2)c2ccccc12 (configuration not stated),0.96,-1.1
Cc1ccc(CN2CCN(CC(=O)NCCN(CC(C)C)CC(C)C)C2=O)cc1,1.1,1.1
COc1ccccc1NC(=O)Cn1cnc2c(nnn2Cc2ccc(F)cc2)c1=O,0.91,-1.5
COc1ccc(C2(CNC(=O)COc3ccccc3)CCOCC2)cc1,1,1.8
COc1ccc(C2CC(=O)N(CCCN(C)CCc3ccc(OC)c(OC)c3)C2)cc1 (configuration not stated),0.97,-0.81
COc1ccc(C2CC(=O)N(CC(=O)Nc3ccc4c(c3)OCO4)c3ccccc3S2)cc1 (configuration not stated),0.91,-1.5
CC(C)c1nc(NCc2ccccc2)c(C#N)c2c1CCCC2,1.2,4.6
Cc1cc(C)c(NS(=O)(=O)c2ccc3c(c2)NC(=O)CC(=O)N3)c(C)c1,1,0.63
CCN(CC)CCCNC(=O)c1ccc2c(c1)N(Cc1cc(C)ccc1C)C(=O)CS2,1,0.36
CC(C)NC(=O)C1C2C=CC3(CN(Cc4ccccc4Cl)C(=O)C13)O2 (configuration not stated),1.1,1.7

SMILES,CBX7 inh,CBX7 inh z-score
CC(=O)N1CCC(N(CCN2CCOCC2)C(=O)Nc2ccc(Cl)c(Cl)c2)CC1,0.87,-2.1
CC(=O)NCCNC(=O)C1CCC(Cn2c(=O)[nH]c3ccsc3c2=O)CC1 (configuration not stated),1,0.11
Fc1cnc(N2CCOCC2)nc1NCc1ccccc1,0.93,-1.2
CCn1cc(C(=O)NCCc2c(C)[nH]c3ccc(OC)cc23)c(C)n1,1,0.35
COc1cccc(C(=O)N(Cc2ccc(OC)c(OC)c2)C2CCS(=O)(=O)C2)c1 (configuration not stated),1,0.012
c1ccc(N2CCN(c3nnc(Cc4ccncc4)c4ccccc34)CC2)cc1,0.97,-1.1
Cc1nc(Nc2ncc3c(n2)CCCC3=O)nc2ccccc12,0.95,-1.2
CCOC(=O)N1CCN(c2c(N3CCOCC3)c(=O)c2=O)CC1,0.96,-0.64
O=C(Cc1ccc(Cl)cc1)Nc1ccc2nn(-c3ccc(F)cc3)nc2c1,1.3,1.8
Cc1ccc(C)c2[nH]c(=O)c(CCNS(=O)(=O)c3ccc(Br)cc3)cc12,1.1,0.59
O=C(NCc1cccs1)C1CCN(S(=O)(=O)c2cccc3cccnc23)CC1,0.99,-0.17
CC(C)c1ccc(NC(=O)c2cn(-c3ccc(F)cc3F)c(=O)c3ccccc23)cc1,1,1

SMILES,CBX7 inh,CBX7 inh z-score
CCc1ccccc1NC(=O)C1CCN(S(=O)(=O)c2ccc(F)cc2)CC1,1,1.2
Cc1nc(-c2ccccc2)sc1C(=O)NCc1ccccc1,0.95,-0.14
CC(C)(C)c1ccc(OCC(=O)Nc2nccs2)cc1,0.99,-0.37
CCOCCCNC(=O)c1ccc2c(c1)ncn2C1CCCC1,0.87,-2
Cc1ccc(CNC(=O)c2c[nH]c3ccc(S(=O)(=O)Nc4ccc(C(C)C)cc4)cc3c2=O)cc1,0.72,-5.2
CC(C)c1ccc(NC(=O)C(c2ccccc2)N2CCC(Cc3ccccc3)CC2)cc1 (configuration not stated),0.72,-1.7
O=C1CC(N2CCN(CCO)CC2)C(=O)N1c1ccc(Br)cc1 (configuration not stated),0.91,-1.3
Cn1cnnc1-c1cccc(NC(=O)c2ccc(F)cc2)c1,1,0.5
Cc1cccc(-c2nc(C(=O)NCc3ccc(F)cc3)c(C)o2)c1,1,0.071
NC(=O)c1nn2c(C(F)(F)F)cc(-c3cccs3)nc2c1Br,1.1,1.1
Cc1nc2nc(SCC(=O)NC3CCCCCCC3)nn2c(C)c1Cc1ccccc1,1.1,0.32
COc1ccccc1CNC(=O)CN1C(=O)CCSc2ccccc21,1,0.67

SMILES,CBX7 inh,CBX7 inh z-score
CCOC(=O)c1cc(-c2ccccc2)n(-c2cccc(C(=O)NCCc3ccccc3)c2)c1C,0.85,-2.8
COc1ccccc1NS(=O)(=O)c1cnc[nH]1,0.91,-1.2
CCOC(=O)N1CCC(NC(=O)c2nc(-c3ccc(C)cc3)oc2C)CC1,1,0.17
COC(=O)c1ccc(NC(=O)CSc2nncc3ccccc23)cc1,1,1.2
CCOC(=O)c1c(NC(=O)c2ccc(Br)cc2)sc(C)c1C,1.2,3.8
O=C(O)c1ccc2c(c1)N(Cc1ccc(F)cc1)C(=O)c1ccccc1S2=O (configuration not stated),1.2,2.2
Cc1ccccc1N(C)S(=O)(=O)c1ccc2[nH]cc(C(=O)N3CCCCC3)c(=O)c2c1,1,0.26
COc1cccc(-c2nn(C)c3sc(C(=O)NCCN(C)Cc4ccccc4)cc23)c1,0.93,-2
O=C(CSc1oc(-c2ccccc2)nc1S(=O)(=O)c1ccccc1)Nc1ccc(F)cc1,0.99,-0.04
Cc1ccc(-n2c(C)nc3cc(C(=O)O)ccc32)cc1Cl,0.96,-1.2
Cc1cc(C(=O)Nc2cnn(Cc3ccccc3C)c2)no1,1.1,3
Cc1ccc(OCc2nc(-c3ccccn3)no2)cc1C,1,0.0091

SMILES,CBX7 inh,CBX7 inh z-score
O=C(Cn1nc(Cc2cccnc2)c2ccccc2c1=O)Nc1cccnc1Cl,1,-0.054
O=C(NCCC1=CCCCC1)c1ccc2c(c1)NC(=O)C1CCCN21 (configuration not stated),0.94,-0.26
O=C(Nc1c2c(nn1-c1cccc(Cl)c1)CS(=O)(=O)C2)C1CCCC1,1.1,0.97
O=c1[nH]c2ccccc2nc1-c1cc(F)ccc1NCc1ccccn1,1.2,2.7
Cc1nn(-c2ccccc2)c2c1C(=O)N(c1ccccc1)C(=O)C(C)(C)C2,1,1.3
CC(C)C(=O)Nc1ccc(-c2csc(-c3ccccc3)n2)cc1,1,0.0066
Cc1ccccc1OCc1nc(-c2ccncc2)no1,0.7,-1.3
CCN1CCN(C(=O)c2cc3c(s2)-c2ccccc2OC3)CC1,1,0.97
CC1CCN(S(=O)(=O)c2ccc3nc(-c4cccnc4)cc(C(=O)NC4CCCCC4C)c3c2)CC1 (configuration not stated),0.85,-1.6
CNc1oc(-c2ccc(Cl)cc2)nc1P(=O)(c1ccccc1)c1ccccc1,0.94,-1.4
O=C(Nc1cc(Cl)ccc1Cl)c1cnn2cccnc12,1,1.6
COC(=O)c1ccccc1NC(=O)COc1cccc(C)c1C,1,0.15

SMILES,CBX7 inh,CBX7 inh z-score
CC(NC(=O)C(C)n1ncc2ccccc21)c1ccc2c(c1)OCCO2 (configuration not stated),0.86,-2.1
COc1ccc(NC(=O)CCn2nc(-c3ccc(Cl)cc3)c3ccccc3c2=O)cc1,0.95,-1.6
CCOc1ccccc1NC(=O)C1(S(=O)(=O)c2ccc(C)cc2)CC1,1,0.61
Cc1cc2nc(-c3cccc(NC(=O)c4ccccc4F)c3)oc2cc1C,1,0.15
Cc1ccc(C(=O)Nc2c(C(N)=O)oc3ccccc23)cc1C,1,1.5
Cc1nc(SCC(=O)c2ccc(F)cc2)c(C#N)c2c1CCCC2,1.1,4.8
CCOC(=O)N1CCC(Nc2ccc3nnc(-c4ccccc4)n3n2)CC1,0.9,-1.4
COc1ccc(OC)c(CNC(=O)Cc2c(C(=O)O)[nH]c3ccc(Cl)cc23)c1,1,0.47
COc1ccccc1NC(=O)CSc1nccn1-c1cccc(C)c1,0.73,-0.27
O=C(NCCc1ccccc1)c1cc(=O)[nH]c2ccc(Br)cc12,1,0.42
Cc1onc(-c2ccccc2Cl)c1C(=O)Nc1ccc(C(C)(C)C)cc1,1.1,2.7
CCCCCC1CCC(c2ccc(C#N)cn2)CC1 (configuration not stated),0.93,-0.89

SMILES,CBX7 inh,CBX7 inh z-score
CCOC(=O)c1sc2nc(C)n(CC(=O)Nc3ccc(F)c(Cl)c3)c(=O)c2c1C,1,0.85
CCOc1ccccc1NC(=O)Cc1cn(C)c2ccccc12,0.68,-6.7
COc1ccccc1-c1cc(C(=O)Nc2cccc(C(F)(F)F)c2)no1,1.1,3.5
O=C(CSc1nnc(Cc2cc(=O)[nH]c(=O)[nH]2)n1-c1ccccc1)N1CCCCCC1,1,1.2

Grouped by structure, the compounds so far containing an NH in an aromatic ring.
SMILES,CBX7 inh,CBX7 inh z-score
CC(NS(=O)(=O)c1ccc2[nH]c(=O)c(=O)[nH]c2c1)c1ccccc1 (configuration not stated),1,0.0057
COc1cccc(C(=O)NCCc2cc3c(C)ccc(C)c3[nH]c2=O)c1,0.98,-0.52
CC(=O)NCCNC(=O)C1CCC(Cn2c(=O)[nH]c3ccsc3c2=O)CC1 (configuration not stated),1,0.11
CCn1cc(C(=O)NCCc2c(C)[nH]c3ccc(OC)cc23)c(C)n1,1,0.35
Cc1ccc(C)c2[nH]c(=O)c(CCNS(=O)(=O)c3ccc(Br)cc3)cc12,1.1,0.59
Cc1ccc(CNC(=O)c2c[nH]c3ccc(S(=O)(=O)Nc4ccc(C(C)C)cc4)cc3c2=O)cc1,0.72,-5.2
COc1ccccc1NS(=O)(=O)c1cnc[nH]1,0.91,-1.2
Cc1ccccc1N(C)S(=O)(=O)c1ccc2[nH]cc(C(=O)N3CCCCC3)c(=O)c2c1,1,0.26
O=c1[nH]c2ccccc2nc1-c1cc(F)ccc1NCc1ccccn1,1.2,2.7
COc1ccc(OC)c(CNC(=O)Cc2c(C(=O)O)[nH]c3ccc(Cl)cc23)c1,1,0.47
O=C(NCCc1ccccc1)c1cc(=O)[nH]c2ccc(Br)cc12,1,0.42
O=C(CSc1nnc(Cc2cc(=O)[nH]c(=O)[nH]2)n1-c1ccccc1)N1CCCCCC1,1,1.2
